SARS PLP yeast – qHTS of Yeast-based Assay for SARS-CoV PLP. Potency, µM (doses to about 32.9 µM), for the others: top-dose activity, positive = growth rescue. S. cerevisiae expressing SARS-CoV PLpro, growth rescue; control for the full effect not named in the record. 330,000 compounds, 0.19% hits. AID 485353, 2010; active means well fitted rising curve with a large enough effect; inconclusive means small, poorly fitted or top-dose-only effect; inactive means no such curve, though single readings can be large or run the other way; also: 0% is about no effect; nearly all actives have a fitted effect of over 55% in size; growth read by luminescence after 48 h
2A StopGo – High Throughput Screening for Foot and Mouth Disease Virus Antivirals | human cells with a luciferase reporter of 2A StopGo recoding; control for the full effect not named in the record | Potency, µM (titrated, usually from 57.9 µM), without a hit: top-dose signal change, negative = less light | 410,000 compounds, 1.2% hits | AID 1159524, 2015; active = well fitted falling curve with a large enough effect; inconclusive = small, poorly fitted or top-dose-only effect; inactive = no such curve, though single readings can be large or run the other way; tested in HEK293T cells; also: % is scaled to controls: 0 for no effect and ±100 for the full control effect; nearly all actives have a fitted effect of over 45% in size; luciferase light after 4 h
NS1 function inh – qHTS Assay for Inhibitors of Influenza NS1 Protein Function. S. cerevisiae slowed by influenza A NS1, growth recovery by OD600. Potency, µM (doses to about 46.1 µM), for the others: top-dose activity, positive = more growth. 270,000 compounds, 0.4% hits. AID 2326, 2010; active means well fitted rising curve with a large enough effect; inconclusive means small, poorly fitted or top-dose-only effect; inactive means no such curve, though single readings can be large or run the other way; also: nearly all actives have a fitted effect of over 50% in size
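Growth recovery, yeast-based: influenza A NS1 expressed in S. cerevisiae causes slow growth, and suppressors are detected by OD600. The parent strain without NS1 is used as positive control.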
Cruzain inh noDet – qHTS Assay for Promiscuous and Specific Inhibitors of Cruzain (without detergent). Cruzipain (Trypanosoma cruzi), P25779. purified cruzain, Z-FR-AMC fluorescence, no detergent. Potency, µM, for inactives: max response, negative = inhibition, most hits filed as inhibitors. 200,000 compounds, 2.3% hits. AID 1476, 2009;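 also: plate controls were enzyme without inhibitor for no effect and buffer without enzyme for full effect; nearly all actives have a fitted effect of over 40% in size; top concentration of the series not given in the record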
Target sequence (P25779 123-467 limits assumed): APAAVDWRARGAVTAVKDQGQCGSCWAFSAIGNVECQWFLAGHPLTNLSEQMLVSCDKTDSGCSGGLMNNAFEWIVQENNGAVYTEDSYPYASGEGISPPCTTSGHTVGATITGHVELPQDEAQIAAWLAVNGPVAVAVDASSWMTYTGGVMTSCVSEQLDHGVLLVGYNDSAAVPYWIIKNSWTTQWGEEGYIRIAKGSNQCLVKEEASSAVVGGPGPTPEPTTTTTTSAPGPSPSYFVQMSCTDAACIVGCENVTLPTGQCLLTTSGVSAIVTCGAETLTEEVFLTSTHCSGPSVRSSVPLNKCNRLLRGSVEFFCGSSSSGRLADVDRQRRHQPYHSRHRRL
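Purified cruzain at 1.5 nM, pre-incubated 15 min with compound at room temperature in 100 mM sodium acetate pH 5.5, 5 mM DTT, 0.00005% Triton X-100. Reaction started with 2 uM Z-FR-AMC; AMC fluorescence increase over 60 s gives rate.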
RE007 growth inh – qHTS Assay for Inhibitors of the HIV-1 protein Vpr | Potency, µM (titrated, usually from 92.2 µM), for the others: top-dose activity change, negative = less growth | S. pombe RE007 Vpr strain, BacTiter-Glo ATP luminescence, 24 h; control for the full effect not named in the record | 360,000 compounds, 0.21% hits; active = well fitted falling curve with a large enough effect; inconclusive = small, poorly fitted or top-dose-only effect; inactive = no such curve, though single readings can be large or run the other way;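 also: % is scaled to controls: 0 for no effect and ±100 for the full control effect; nearly all actives have a fitted effect of over 50% in size; the assay follows cell death caused by Vpr and the record does not say whether a fall means rescue or toxicity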
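Fission yeast RE007 carrying one integrated HIV-1 vpr copy, seeded at OD 0.01 in PMG+AL medium with 23 nL pinned compound. Grown 24 h at 30 degrees; viability read by BacTiter-Glo luminescence after 5 min.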
Marburg entry inh – qHTS for inhibitors of binding or entry into cells for Marburg Virus | 300,000 compounds, 1.8% hits | Potency, µM (titrated, usually from 37.8 µM), inactives show at the highest dose activity change, negative = inhibition, most hits filed as inhibitors | Marburg virus pseudotyped entry inhibition, cell reporter; control for the full effect not named in the record; about a third of the inactives were read at about 46 µM | AID 540276, 2011; active = well fitted inhibition curve with a large enough effect; inconclusive = small, poorly fitted or top-dose-only effect, or effect the other way; inactive = flat fitted curve, though single readings scatter; tested in HEK293 cells; about a fifth of its hits are not listed in these tables; also: % is scaled to controls: 0 for no effect and ±100 for the full control effect; luciferase read-out
LASV entry inh – qHTS for Inhibitors of binding or entry into cells for Lassa Virus | Lassa virus pseudotype entry inhibition, cell reporter; control for the full effect not named in the record | 300,000 compounds, 1.2% hits | AID 540256, 2011 | Potency, µM (doses to about 37.9 µM), inactives show top-dose activity change, negative = inhibition, most hits filed as inhibitors; active means well fitted inhibition curve with a large enough effect; inconclusive means small, poorly fitted or top-dose-only effect, or effect the other way; inactive means flat fitted curve, though single readings scatter; tested in HEK293 cells; also: % is scaled to controls: 0 for no effect and ±100 for the full control effect; nearly all actives have a fitted effect of over 50% in size; luciferase read-out
Cruzain inh Det – qHTS Assay for Promiscuous and Specific Inhibitors of Cruzain (with detergent); Cruzipain (Trypanosoma cruzi), P25779; purified cruzain, Z-FR-AMC fluorescence, 0.01% Triton; Potency, µM, for inactives: max response, negative = inhibition, actives largely listed as inhibitors; 200,000 compounds, 0.43% hits;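 also: plate controls were neutral wells for no effect and buffer without enzyme for full effect; nearly all actives have a fitted effect of over 40% in size; top concentration of the series not given in the record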
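Detergent-containing run (0.01% Triton X-100) in acetate buffer pH 5.5 with 5 mM DTT: enzyme at 1.5 nM final, 15 min compound preincubation at room temperature, then 2 uM Z-FR-AMC substrate. Activity taken as 60 s fluorescence increase at 360/450 nm.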
* = called active by the depositor; ? = inconclusive; . = not tested or not shown; & = joins results of further samples; [ ] = dose if it differs, or a comment. Unless noted, calls follow the shape of the dose curve; as a rule, active = well fitted curve in the direction sought with a large enough effect; inconclusive = small, poorly fitted or top-dose-only effect, or another doubt; inactive = no such curve, though single readings can be large; an effect the other way counts as inactive or inconclusive. Potency is read from the fitted curve at half-maximal effect.

SMILES	SARS PLP yeast	2A StopGo	NS1 function inh	Cruzain inh noDet	RE007 growth inh	Marburg entry inh	LASV entry inh	Cruzain inh Det
O=C(Nc1nc(N2C(=O)c3ccccc3C2=O)n(-c2ccccc2)n1)c1ccccc1	3%	11%	-6%	-1%	-5%	16%	-3%	-3.5%
COc1ccc(NC(=O)Cn2c(=O)n(Cc3ccco3)c(=O)c3sc4ccccc4c32)c(OC)c1	.	-10%	.	3%	.	-10%[46.1 µM]	?	-2.9%
O=C(CCc1nnc(-c2ccc(-c3ccccc3)cc2)o1)N1CCCCC1	-2%	7%	8%	.	-6%	?	?	.
CCOc1ccc(-c2nnn(CC(=O)N3CCN(c4ccc(OC)cc4)CC3)n2)cc1OCC	-5%	-3%	2%	?	-10%	0%	-8%	1.6%
CCC(=O)N1C(C(=O)NCc2ccc(OC)cc2)CSC1c1ccc(OC)cc1 (stereo not given)	5%	-8%	-6%	3%	16%	.	.	-7.1%
CCOC(=O)c1ccc(NC(=O)CCn2c(=O)c3cccn3c3ccccc32)cc1	.	?	.	0%	.	.	?	-1.6%
OCC[C@@H]1C[C@H](O)[C@@H](O)[C@@]2(Cc3ccccc3CO2)O1	-8%	-1%	-12%	.	7%	.	.	.
Cc1ccc(C(=O)Nc2cccnc2Cl)cc1Cl	-8%	39%[activator]	-16%	.	33%	?	?	.
O=C1CC(N2CCN(C/C=C/c3ccccc3)CC2)C(=O)N1CCc1ccccc1 (stereo not given)	0%	.	-10%	-8%	18%	?	-33%	-0.8%
Cc1cc(C)cc(OCC(O)CN2C(=O)NC(C)(C)C2=O)c1 (stereo not given)	-1%	-27%	-6%	0%	-11%	1%	.	0.6%
Cc1ccc2c(CN3CCN(S(=O)(=O)c4ccc(Cl)cc4)CC3)cc(=O)oc2c1C	-7%	?	.	.	0%	?	?	.
CC(=O)N1CCN(c2ccc([N+](=O)[O-])cc2)CC1	-1%	-24%	-2%	.	-5%	2%[46.1 µM]	7%[46.1 µM]	.
CCCNC(=O)CSc1nnc(-c2ccccc2Br)n1-c1cccc(C(F)(F)F)c1	-1%	-17%	9%	?	8%	?	?	0.5%
COc1ccc(S(=O)(=O)N2CCC(C(=O)Oc3cccc(C)c3)CC2)cc1OC	23%	-16%	8%	.	-1%	-1%[46.1 µM]	11%[46.1 µM]	.
c1ccc(Nc2nc3ccccc3n3cnnc23)cc1	5%	0%	-35%	-19%	-12%	.	.	-2.5%

Next section
SMILES	SARS PLP yeast	2A StopGo	NS1 function inh	Cruzain inh noDet	RE007 growth inh	Marburg entry inh	LASV entry inh	Cruzain inh Det
CC[C@@H](C)[C@@H](C(=O)Nc1ccc(C)cc1)N1Cc2ccccc2C1=O	.	-18%	.	12%	.	-11%[46.1 µM]	-25%[46.1 µM]	-2.5%
Cc1cc(NC(=O)CSc2ncnc3ccccc23)no1	2%	-6%	-4%	-3%	2%	.	.	-3.7%
CCCNC(=O)C1CC(c2ccc(C(F)(F)F)cc2)=NO1 (stereo not given)	-3%	13%	-10%	.	-6%	.	.	.
NC(CCP(=O)(O)O)C(=O)O (stereo not given)	.	-15%	-2%	4%	.	-25%&-25%&-25%&-4%&-25%	-3%	2.2%
O=C(NC1CCN(Cc2ccccc2)CC1)C1CCN(S(=O)(=O)c2ccccc2)CC1	-1%	-13%	3%	.	-15%	-14%[46.1 µM]	6%[46.1 µM]	.
O=C1C(=O)N(Cc2cccnc2)C(c2cccc(Br)c2)/C1=C(/O)c1ccc2c(c1)OCO2 (stereo not given)	9%	8%	16%	.	15%	.	.	.
O=C(N/N=C/c1cccc(OC(=O)c2cccc(Br)c2)c1)c1ccncc1	-2%	0%	-2%	.	0%	33%	4%	.
O=C(NC1CCCC1)c1cc(-c2ccc(Cl)cc2)on1	0%	32%[activator]	-2%	.	-11%	?	-18%[46.1 µM]	.
CSc1nnnn1-c1cccc(O)c1	0%	25%	-2%	3%	14%	28%	3%	4.4%
Cc1ccccc1CS(=O)(=O)Cc1ccc(C(=O)NCCCN2CCCC2=O)o1	6%	-20%	?	3%	-6%	0%	0%	1.3%
Cc1cc(C)c(C#N)c(SCC(=O)Nc2nonc2N)n1	0%	51%[activator]	-4%	.	-4%	23%[46.1 µM]	.	.
CCc1ccc(NC(=O)c2ccc3[nH]c(C)c(C)c3c2)cc1	.	-21%	.	-13%	.	.	-1%[46.1 µM]	-4.5%
COc1ccc(CCNC(=O)c2cc3n(n2)CCCN(Cc2ccc(C)cc2)C3=O)cc1OC	.	?	.	?	.	.	-3%[46.1 µM]	-3.5%
c1ccc(N2CC3COc4ccccc4C3=N2)cc1 (stereo not given)	.	35%[activator]	.	.	1%	5%	?	.
c1ccc(-n2cnc3cc(NCc4ccncc4)ccc32)cc1	2%	-8%	?	8%	2%	-14%	?	0.9%

Continuation:
SMILES	SARS PLP yeast	2A StopGo	NS1 function inh	Cruzain inh noDet	RE007 growth inh	Marburg entry inh	LASV entry inh	Cruzain inh Det
Cc1cccc(Cn2nnc3c(=O)[nH]c(C4CCN(C(=O)c5ccc(F)cc5)CC4)nc32)c1	.	5%	.	?	.	-11%[46.1 µM]	-15%[46.1 µM]	-4.1%
CC(=O)c1cc(-c2ccccc2)n(CC(=O)N2CCCCC2)c1C	4%	19%	4%	5%	2%	-19%	-5%	4.9%
CC(C)CCNC(=O)c1cc(-c2ccc(Br)s2)nc2ccccc12	.	0%	.	3.2µM*	.	12%[46.1 µM]	-10%[46.1 µM]	-2.2%
O=C(CN1CC(=O)Nc2ccccc21)Nc1ccc(F)c(F)c1	0%	19%	.	.	-17%	-8%[46.1 µM]	-21%[46.1 µM]	.
CCCOc1ccc(-c2nn(-c3ccccc3)cc2C2NC(=O)NC(C)=C2C(=O)OC(C)C)cc1 (stereo not given)	.	-10%	.	-5%	.	?	-30%[46.1 µM]	-13%
O=c1c(Br)c(Br)cnn1-c1ccccc1	1%	14µM*	-44%	.	?	?	?	.
CC(=O)N1CCCc2cc(S(=O)(=O)N(CC(C)C)CC(C)C)ccc21	-1%	-2%	2%	?	3%	0%	-27%	-4.0%
Cc1cccc(C(=O)Nc2ccc(C(=O)N/N=C/c3ccc4c(c3)OCO4)cc2)c1	-5%	-12%	17%	.	9%	?	?	.
Cc1ccc(NC(=O)c2ccc3c(c2)C(=O)N(CC2CCCO2)C3=O)cc1C (stereo not given)	-1%	-12%	-4%	.	12%	-2%[46.1 µM]	16%[46.1 µM]	.
O=C(c1ccc(OC2CCN(Cc3ccccn3)CC2)cc1)N1CCCCO1	1%	17%	-5%	.	2%	0%[46.1 µM]	6%	.
N#Cc1c(NC(=O)CCCC(=O)O)sc2c1CCCCC2	5%	0%	9%	-8%	-15%	1.2µM*	8.2µM*	-3.1%
COc1ccc(C2=C(Nc3ccccc3)c3ccccc3C2=O)cc1	-9%	-9%	-8%	-28%	2%	16%	-10%	-3.8%
CCOc1ccccc1N(CC(=O)NCCOC)C(=O)CCC(=O)Nc1ccccn1	2%	16%	3%	.	1%	11%	-1%	.
Cc1nc(Cl)c(C#N)c2c1CCCC2	-1%	-15%	-3%	.	-10%	.	.	.
Cc1ccc(N(C(=O)Cc2cccs2)C(C(=O)NCC2CCCO2)c2ccncc2)cc1 (stereo not given)	1%	10%	3%	.	-9%	5%[46.1 µM]	2%	.

Going on with the list.
SMILES	SARS PLP yeast	2A StopGo	NS1 function inh	Cruzain inh noDet	RE007 growth inh	Marburg entry inh	LASV entry inh	Cruzain inh Det
CN1CCN(c2ccc(C(CC(N)=O)NC(=O)Cc3cccc4ccccc34)cc2[N+](=O)[O-])CC1 (stereo not given)	1%	10%	8%	.	9%	.	.	.
CCOC(=O)N1CCN(C2CC(=O)N(c3ccccc3)C2=O)CC1 (stereo not given)	-8%	2%	3%	-1%	-15%	12%	?	-0.3%
O=C(NC1CCCCC1)c1cccc(S(=O)(=O)N2CCCCC2)c1	2%	-4%	4%	.	11%	3%[46.1 µM]	4%[46.1 µM]	.
CC1CCCCC1NC(=O)COC(=O)c1ccc2c(c1)NC(=O)CS2 (stereo not given)	-1%	-20%	.	.	1%	3%	2%	.
COc1ccc(CNC(=O)c2cc3cc4cc(OC)ccc4nc3o2)cc1	.	15%	.	14%	.	.	6%[46.1 µM]	0.7%
O=C(NN1CCOCC1)c1cc(-c2ccncc2)nc2ccccc12	-3%	-9%	.	.	3%	20%	?	.
COc1ccc(NC(=O)c2c(NC(=O)c3cccc(C)c3)sc3c2CCC3)cc1	.	9%	.	-2%	.	6%[46.1 µM]	13%[46.1 µM]	-2.7%
Cc1ccc(Cl)cc1N1CCN(S(=O)(=O)c2ccc3c(c2)oc(=O)n3C)CC1	-9%	-9%	14%	-24%	15%	-8%	-19%	1.5%
Cc1ccc2nc(Cl)c(/C=C/C(=O)c3ccco3)cc2c1	-2%	?	-31%	.	7%	4%	?	.
COc1ccc2c(=O)cc(-c3ccccc3F)oc2c1	-1%	43%[activator]	-8%	.	?	1%	?	.
CCC(=O)Nc1cc(C(F)(F)F)ccc1N1CCCC1	0%	-3%	6%	.	0%	7%[46.1 µM]	5%	.
COc1ccc(-n2cc(-c3ccccc3)c3c(=O)[nH]cnc32)cc1	10%	-15%	0%	18%	5%	?	21µM*	-6.6%
COC(=O)C(CC(=O)O)NCc1ccco1 (stereo not given)	0%	2%	3%	.	-6%	.	.	.
Cc1cccc(NC(=O)c2sc3ncn(CC(=O)N4CCN(c5ccccn5)CC4)c(=O)c3c2C)c1	11%	-19%	-55%	.	-9%	.	.	.
CCCCn1c(N)c(N(CCC(C)C)C(=O)c2cc(Cl)nc3ccccc23)c(=O)[nH]c1=O	-4%	-11%	.	.	1%	?	4%	.
